MgrA-DNA mod = S. aureus MgrA activity modulators, primary screen, biochemical, S. aureus Newman, fluorescence polarization. MgrA-DNA binding. inhibition, %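 (about 10 µg/mL by stock and volumes)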. 84,000 tested, 0.13% active. AID 602314, 2012;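 active = above 50% in either of two replicates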;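 also: 0% = protein plus DNA without compound and 100% = DNA alone without protein; higher means less MgrA bound to DNA so lower polarization; one replicate is shown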
Sa helicase inh = inhibitors of S. aureus replicative helicase, primary screen, biochemical, fluorescence unwinding readout. inhibition, %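 (tested at about 80 µM)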. AID 485395, 2010. purified S. aureus helicase, fluorescence unwinding assay; about half of the hits fall short of the stated cut. 120,000 tested, 0.05% active;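 active = both duplicates at 50% or more, or one of them with a favoured structure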;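 also: 0% = mean of negative control wells and 100% = mean of positive control wells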
Starred values were filed as active, the others as inactive; / = not tested or not shown; & = joins results of further samples.

Screens in order: MgrA-DNA mod, Sa helicase inh
O=C(Oc1ccc(-c2csnn2)cc1)c1cc(C(F)(F)F)cc(C(F)(F)F)c1
    -1.1, /
CC(C)/C=c1/[nH]c(=O)/c(=C/c2ccccc2)[nH]c1=O
    -0.5, 7.0
N#C/C(C(=O)Nc1ccc(Cl)cc1)=C1/SCC(=O)N1c1ccccc1
    2.8, -24.0
CC(C)Cn1c(-c2cccs2)nc2ccccc21
    /, 21.0
COC(=O)c1cn(CC(=O)Nc2ccc(OC)cc2)c2ccccc12
    2.0, 9.0
CCC(C)S(=O)(=O)c1scc(-c2ccc(Cl)cc2)c1C#N (stereo not drawn)
    -1.1, /
CCCS(=O)(=O)NCc1ccco1
    /, -13.0
CCS(=O)(=O)N1CCC(C(=O)N2CCOCC2)CC1
    /, -2.0
COc1ccc2c(c1)CN(CCc1ccc(Cl)cc1)CO2
    /, 16.0
Cc1ccc2c(c1)N(CCC(=O)O)C(=O)CO2
    /, -3.0
COC(=O)C1C(c2ccccc2)C(C(=O)OCc2ccco2)C1c1ccccc1 (stereo not drawn)
    1.1, 1.0
CCC(=O)c1cn(CC(=O)NCCOc2ccc(Cl)cc2)c2ccccc12
    -0.1, 5.0
CCc1ccc(CNC(=O)CCn2c(=O)oc3ccccc32)cc1
    /, 41.0
O=C(NC1CCCCCC1)c1cccc(N2CCCC2=O)c1
    1.8, -10.0
O=c1cccc(-c2ccccc2)[nH]1
    /, 8.0
CCCC1(C(=O)OCC)NC(c2ccc(N(C)C)cc2)C2C(=O)N(c3ccc(OCC)cc3)C(=O)C21 (stereo not drawn)
    -8.6, 8.0
CSc1ccc(C2CC(=O)N3CN(C)CSC3=C2C#N)cc1 (stereo not drawn)
    /, -11.0
CCOC(=O)c1cc2n(c1C)-c1ccccc1C2=O
    /, 17.0
COc1ccc(N(C)C(=S)Nc2ccc3nc(-c4ccco4)c(-c4ccco4)nc3c2)cc1
    59.6*, -2.0
CN(C)/N=C/c1ccc(OC(=O)c2ccco2)cc1
    /, -9.0
O=C(CSc1nc2ccccc2s1)n1c2ccccc2c2ccccc21
    -0.1, 13.0
CCOC(=O)/C(N=Nc1cc(Cl)cc(Cl)c1)=C(\C)O
    -1.5, /
CC(C)CC1NC(=O)N(CCCCN2C(=O)c3ccccc3C2=O)C1=O (stereo not drawn)
    /, -11.0
Cc1ccc2cc(CCNC(=O)CC(C)C)c(=O)[nH]c2c1
    /, -15.0
COCc1cc(=O)[nH]c(Nc2nc3ccccc3s2)n1
    -4.0, -4.0
C=C(C)Cn1c(CNC(=O)CCC)nc2ccccc21
    /, -16.0
CC(C)(C)c1ccc(C(=O)NCCc2ccccn2)cc1
    /, 10.0
N#CN(Cc1ccccc1)Cc1ccccc1
    -1.1, /
CCOC(=O)C1CCN(C(=S)NC2Cc3ccccc3C2)CC1
    0.9, 5.0
CCN(CC)S(=O)(=O)c1ccc(S(=O)(=O)N2CCN(C)CC2)cc1
    -1.1, 9.0
N#Cc1cc(Oc2ccc(C(=O)c3ccccc3)cc2)nc2ccccc12
    1.6, 8.0
O=C(O)CCc1ccc(-c2cccs2)n1NC(=O)c1cccs1
    2.0, -7.0
O=C(NCC(=O)N1CCC(n2c(=O)[nH]c3ccccc32)CC1)c1ccc2ccccc2c1
    /, -5.0
O=C(CN1CCN(Cc2nc3ccccc3s2)CC1)N1CCc2ccccc21
    /, -11.0
N=C(N)COc1ccccc1Cl
    0.7, /
CC(C)CC(=O)Nc1ccccc1-c1nnn(CC(=O)N2CCc3ccccc3C2)n1
    0.1, 5.0
Cc1ccc(C2=NNC(=O)CC2)cc1
    1.4, -9.0
CCn1cc(C(=O)O)cn1
    /, 32.0
Nc1ccc(CN2CCCC2)cc1
    /, -4.0
O=C(NCCCn1ccnc1)c1cc2c(s1)CCCC2
    -4.2, -15.0
Cc1cc(=O)n2nc(CN3CCN(C4CCS(=O)(=O)C4)CC3)sc2n1 (stereo not drawn)
    /, -11.0
O=C(O)CSc1c2c(nc3cc(C(=O)NCc4cccnc4)ccc13)CCC2
    /, 9.0
Cc1ccc(C(=O)C2CCN(S(=O)(=O)c3cc(C(F)(F)F)cc(C(F)(F)F)c3)CC2)cc1
    0.7, /
COC(=O)CNC(=O)Cn1c(=O)n(CCc2ccccc2)c(=O)c2ccccc21
    -0.7, -2.0
O=c1c(C=NCc2cccnc2)c(C(F)(F)F)[nH]n1-c1nc2ccccc2s1
    -1.9, 3.0
Cc1cc2c3nonc3ccc2n1-c1ccccc1
    -1.8, /
CCOc1ccccc1NC(=O)CSc1nccn1-c1ccccc1
    /, 8.0
Cc1cc2[nH]c(=O)c(=O)[nH]c2cc1S(=O)(=O)N1C(=O)CNc2ccccc21
    /, 26.0
CC(C)CCNC(=O)Cn1cnc2c(cnn2-c2ccc(S(N)(=O)=O)cc2)c1=O
    /, -11.0
CC(C)Oc1nc(N)c(C#N)c(-c2ccc3c(c2)OCO3)c1C#N
    /, -3.0

Further compounds.
Screens in order: MgrA-DNA mod, Sa helicase inh
CCCCNC(=O)NC1C2CC3CC(C2)CC1C3 (stereo not drawn)
    /, -44.0
O=C(c1ccccc1)N1CCN(C2CCCC2)CC1
    -2.0, -3.0
O=C(NCCN1CCN=C1c1ccccc1)c1ccccc1
    -7.1, 11.0
CNC(=O)CCCn1nc(C)c2sc3ccccc3c2c1=O
    0.9, -7.0
Cc1ccc(C2=C(CC(=O)O)C(=O)CC2)cc1
    2.7, -4.0
CCOc1ccc(-c2cc(C(=O)O)c3ccccc3n2)cc1
    /, 26.0
Nc1ccc(S(N)(=O)=O)cc1
    4.1&0.0, /
C=CCN1C(=O)c2ccc(C(=O)OCC(=O)c3cc(C)n(-c4cc(C)on4)c3C)cc2C1=O
    /, 3.0
Cc1nc(=O)c(-c2ccccc2)c(C)n1CCCN1CCOCC1
    /, 21.0
O=C(Cn1c(=O)oc2cc(S(=O)(=O)N3CCCC3)ccc21)N1CCCC1
    -0.6, 18.0
COc1cccc(C(=O)N=c2sc3cc(Cl)ccc3n2C)c1
    /, 5.0
O=C(O)C1CSC(c2ccccc2Cl)N1C(=O)c1ccccc1F (stereo not drawn)
    -2.1, 6.0
NNC(=O)CSc1cc(C(F)(F)F)nc2ccccc12
    1.6, /
COCC(C)n1c(Sc2ncnc3sccc23)nc2ccccc2c1=O (stereo not drawn)
    /, 19.0
C=CCNC(=O)CN1C(=O)COc2ccccc21
    10.2, 7.0
CN(C)/C=C/c1cc(=S)c2ccccc2s1
    2.3, 19.0
S=c1nc(NCCc2ccccc2Cl)c2ccccc2[nH]1
    -1.6, 4.0
c1ccc2oc(-c3ccc(-c4nc5ccccc5o4)cc3)nc2c1
    /, -3.0
CC(C)(C)c1cc(C(C)(C)C)n(-c2ccc(N3C(=O)COCC3=O)cc2)n1
    -1.6, /
O=C(CC1SC(=Nc2ccccc2)NC1=O)NCc1ccccc1 (stereo not drawn)
    -3.6, /
CC(=O)N1c2ccccc2NC2=C(C(=O)CCC2)C1c1ccco1 (stereo not drawn)
    0.4, 0.0
CC(=O)[C@H]1CCC2C3CC=C4C[C@@H](O)CC[C@]4(C)C3CC[C@@]21C (stereo partly drawn)
    0.8, /
c1ccc(N2CCN(CSc3nc4ccccc4s3)CC2)cc1
    /, -5.0
COc1cc(/C=N/NC(=O)N/N=C/c2cc(OC)c(OC)c(OC)c2)cc(OC)c1OC
    -1.1, /
N/C(=N\O)c1ccncc1
    1.9, 1.0
Cc1sc2nc(SC(C)C#N)n(C(C)C)c(=O)c2c1C (stereo not drawn)
    /, 2.0
Cc1cccc(NC(=O)NC2CCCCC2)n1
    2.3, 1.0
O=C1CCCN2N=C(SCC(=O)NCc3ccco3)SC2=N1
    /, 9.0
CCOC(=O)C1=C(C)NC(=O)NC1c1cccc([N+](=O)[O-])c1 (stereo not drawn)
    0.1, /
CCS(=O)(=O)c1ccc(O)c(NC(=O)CSCC(=O)O)c1
    /, 16.0

Two records picked at random from those above:
Screens in order: MgrA-DNA mod, Sa helicase inh
N/C(=N\O)c1ccncc1
    1.9, 1.0
CC(=O)N1c2ccccc2NC2=C(C(=O)CCC2)C1c1ccco1 (stereo not drawn)
    0.4, 0.0

Continuation:
mol | MgrA-DNA mod | Sa helicase inh
O=C(Cn1nc(-c2ccccc2)ccc1=O)NCCc1ccccc1 | -0.6 | 10.0
Cc1cccc(-c2noc(CNC(=O)C34CC5CC(CC(C5)C3)C4)n2)c1 | / | 12.0
O=c1cc(CSc2ncccn2)nc2sccn12 | / | 3.0
CN(C)C(CNC(=O)Nc1ccccc1)c1cccnc1 (stereo not drawn) | / | -2.0
N#C/C(=C\Nc1ccc(F)cc1)S(=O)(=O)c1cccs1 | -1.9 | /
CC1CCCCN1C(=O)Cn1c(=O)n(-c2ccc(F)cc2)c(=O)c2sccc21 (stereo not drawn) | / | 2.0
O=C(COC(=O)c1cnccn1)c1ccc(C2CCCCC2)cc1 | -1.6 | 2.0
O=C(NN1CCOCC1)c1ccc(C(=O)c2ccccc2)cc1 | / | -2.0
CCOC(=O)C1CCCN(S(=O)(=O)c2ccc3c4c(cccc24)C(=O)N3CC)C1 (stereo not drawn) | / | 8.0
O=[n+]1c2c(n([O-])c3c1CCCC3)CCCCC2 | 0.8 | 8.0
CC1=C(C#N)C(=O)N(CCO)C(=O)/C1=C\c1ccc(-c2ccccc2)o1 | / | -15.0
CN(CCC(N)=O)Cc1ccccc1 | -1.8 | -2.0
N#Cc1c(OCC(F)(F)F)ccc(Sc2ncccn2)c1OCC(F)(F)F | -0.4 | /
O=C(NCC(=O)N1CCc2ccccc2C1)c1ccc2c(c1)OCO2 | / | -7.0
Cc1oc2c(CN3CCCC(C)C3)c(O)ccc2c(=O)c1-c1nc2ccccc2s1 (stereo not drawn) | / | 9.0
Clc1nnc(-c2ccccc2)c(-c2ccccc2)n1 | -2.3 | /
Cn1nnc2cc(C(=O)NC3CC3)ccc21 | -1.1 | -1.0
Cc1nnc(SCC(=O)N2N=CCC2c2ccccc2)s1 (stereo not drawn) | -0.6 | 3.0
Cc1cc(N2CCN(C3CCCCC3)CC2)nc2cc(O)ccc12 | / | 1.0
C1=CC2C(C1)C1CC(NC3=NCCS3)C2C1 (stereo not drawn) | -3.7 | /
CCOC(=O)c1sc(N=Nc2cc3c4c(c2O)CCCN4CCC3)c(C(=O)OCC)c1C | 3.7 | 9.0
O=C(Cn1c2ccccc2n2ncnc12)c1ccc(-c2ccccc2)cc1 | 2.3 | 1.0
CCN(Cc1ccccc1)C(=O)C1C(=O)CC(C)(C)C(C(=O)OC)C1=O (stereo not drawn) | -2.8 | 5.0
Cn1nnc(NCc2cc(Br)ccc2OCc2ccccc2F)n1 | 0.1 | 12.0
Cc1cc(C)c(-c2ccn(C(=O)c3snnc3C)n2)[nH]1 | 1.1 | /
O=C(CSC1=NCCN1)C1COc2ccccc2O1 (stereo not drawn) | -1.9 | -2.0
O=C(CCS(=O)(=O)c1ccccc1)Nc1ccccc1N1CCOCC1 | / | 35.0
CCCCCOc1ccc(C2Oc3ccccc3C3CC(c4ccc(OC)cc4)=NN32)cc1 (stereo not drawn) | -1.2 | /
CCOc1ccc(C(=O)SC2=NCCS2)cc1 | 0.0 | 14.0
CC(C)(C)n1nc(C2CC2)cc1N | -0.1 | /

The final 7 entries of the section before open the next one:
mol | MgrA-DNA mod | Sa helicase inh
Cn1nnc(NCc2cc(Br)ccc2OCc2ccccc2F)n1 | 0.1 | 12.0
Cc1cc(C)c(-c2ccn(C(=O)c3snnc3C)n2)[nH]1 | 1.1 | /
O=C(CSC1=NCCN1)C1COc2ccccc2O1 (stereo not drawn) | -1.9 | -2.0
O=C(CCS(=O)(=O)c1ccccc1)Nc1ccccc1N1CCOCC1 | / | 35.0
CCCCCOc1ccc(C2Oc3ccccc3C3CC(c4ccc(OC)cc4)=NN32)cc1 (stereo not drawn) | -1.2 | /
CCOc1ccc(C(=O)SC2=NCCS2)cc1 | 0.0 | 14.0
CC(C)(C)n1nc(C2CC2)cc1N | -0.1 | /
CCN1C(=O)C2ON(c3ccc(Cl)cc3)C(c3ccc(N(C)C)cc3)C2C1=O (stereo not drawn) | / | -12.0
CC1(C)/C(=N\OC(=O)c2cccc(C(F)(F)F)c2)[C@]2(C)CCC1C2 | 2.0 | /
CCn1c(=O)cc(OCC(=O)N2CCCCC2C)c2ccccc21 (stereo not drawn) | -3.6 | 16.0
Cc1ccc2nc(NC(=O)c3ccc(Br)s3)sc2c1 | / | 11.0
C[C@@H](C(=O)Nc1nc2ccccc2s1)N1C(=O)C2CC=CCC2C1=O (stereo partly drawn) | / | 1.0
Nn1c(Cc2cccc3ccccc23)nnc1SC1CCOC1=O (stereo not drawn) | / | -9.0
COc1cc(C(F)(F)F)nc(-c2ccccn2)n1 | 1.5 | /
CN(C)C(=O)COC(=O)c1ccc(Oc2ccc(C(=O)OCC(=O)N(C)C)cc2)cc1 | / | -5.0
Cc1cnn2c1nnc1c3ccccc3ccc12 | / | 10.0
COc1ccc(S(=O)(=O)N2c3cccc4cccc(c34)S2(=O)=O)cc1 | / | -7.0
O=C(Nc1ccccc1)C(=S)N1CCOCC1 | 6.1 | 10.0
CC1(C)CC(C(=O)NCCC(c2ccccc2)c2ccco2)CCO1 (stereo not drawn) | / | 7.0
Cc1ccc2nsnc2c1NC(=O)C(c1ccccc1)c1ccccc1 | / | 4.0
O=C(COC(=O)C12CC3CC(CC(Cl)(C3)C1)C2)NCc1cccs1 | 0.1 | 4.0
COc1cccc(Nc2ncccc2C(=O)Nc2ccc(F)cc2)c1 | 0.2 | -5.0
CC(=O)NC(CC(=O)Nc1ccc(N2CCOCC2)cc1N1CCOCC1)c1ccccc1 (stereo not drawn) | / | 1.0
CC1CC(=O)Nc2ccccc2N1C(=O)COC(=O)c1cn(C)c2ccccc12 (stereo not drawn) | / | 2.0
COc1ccc(N2CCN(C(=O)CSc3nccn3C)CC2)cc1 | / | -9.0

Only part of the results is shown; count on the stated rates, not on these rows.
